Compound activity as filed in PubChem.
AID504770 – growth inhibitors of E. coli YBA685 in a screen for V. cholerae RctB (chromosome II replication) inhibitors. z-score (no concentration beside the values). AID 504770. E. coli YBA685 rctB-dependent plasmid, OD600 growth, 3 h; active compounds read low. actives 0.27% (n = 130,000);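 active means z-score under -2 on both plates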;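 further: wells of about 30 µL received 100 nL stock; score is relative to mean and SD of the test wells; the first replicate is given; strong numbers were not always called active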
CapD inh – CapD enzyme inhibition | AID 492967 | actives 0.23% (n = 140,000) | z-score (concentration not given with the values) | purified CapD enzyme, fluorescence intensity read-out; active compounds read low; some hits fall short of the stated cut;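 active means z-score under -4 in either of two replicates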;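 further: stock transfer was 100 nL into about 40 µL; score is relative to mean and spread of the plate; one replicate is shown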
* = called active by the depositor; . = no result given. The list is partial; rates above refer to the full screens.

SMILES | AID504770 | CapD inh
C=CCOc1ccc(/C=c2\sc3nc(-c4cccnc4)nn3c2=O)cc1 | . | -0.51
O=C(NCCc1ccccc1)C(C(=O)c1ccccc1)n1ccccc1=O (centres undefined) | -0.4 | 0.55
O=C(O)c1cc(N2C(=O)C3C4c5ccccc5C(c5ccccc54)C3C2=O)ccc1N1CCOCC1 (centres undefined) | -0.7 | -0.07
O=C(OCC1CCNCC1)c1ccc(F)cc1 | 0.95 | .
C=CCn1c(-c2ccncc2)nn(CN(C)CCc2ccc(OC)c(OC)c2)c1=S | 0.05 | .
O=C(NCc1ccccn1)C1CCN(c2nc3ccccc3n2Cc2ccccc2F)CC1 | 0 | -0.08
COc1cc(C)ccc1S(=O)(=O)n1cnc2cc(C)c(C)cc21 | 0.05 | 0.23
CCSc1sc(CC)cc1C1C(C(=O)Nc2cccnc2)=C(C)NC2=C1C(=O)CCC2 (centres undefined) | 0.45 | -0.16
OCC[n+]1ccc(/C=C/c2c[nH]c3ccccc23)cc1 | -0.05 | 9
O=C(Cc1cccs1)NCC1(N2CCCCC2)CCCCC1 | -0.65 | .
CCC(C)Nc1nc(NC(C)C)nc(Oc2ccc(C(=O)OC(C)C(=O)OC)cc2)n1 (centres undefined) | -0.45 | 0.25
Cn1c(=O)c2c(nc(NCCOCCO)n2Cc2ccc(Br)cc2)n(C)c1=O | . | -0.1
Cc1nc(N=CNO)ccc1Br | -1 | -0.07
CN(C)CCP(=O)(c1ccccc1)c1ccccc1 | 0.5 | 0.45
CCN(CC)CCOCCOC(=O)N1CCc2c([nH]c3ccccc23)C1 | . | 0.54
CC12CN3CC(C)(CN(C1)C3(C)C)C2O (centres undefined) | -1 | -0.13
O=C1NC(=S)N/C1=C/c1cccc(Oc2ccc([N+](=O)[O-])cc2[N+](=O)[O-])c1 | . | -0.73
COCc1cc(=O)n2[nH]c(-c3ccsc3-n3c(C)ccc3C)cc2n1 | . | 0.085
COC(=O)c1ccc(C(=O)OC)c(NC(=O)c2cc3nc(-c4ccc5c(c4)OCO5)cc(C(F)(F)F)n3n2)c1 | . | 0.1
COc1ccc(Br)cc1CNC(=O)CCc1nc(-c2ccccc2F)no1 | 0.1 | 0.68

Compound profiles (already shown). Values in the order: AID504770, CapD inh
Shown for O=C1NC(=S)N/C1=C/c1cccc(Oc2ccc([N+](=O)[O-])cc2[N+](=O)[O-])c1 → ., -0.73
Shown for C=CCn1c(-c2ccncc2)nn(CN(C)CCc2ccc(OC)c(OC)c2)c1=S → 0.05, .
Shown for CCSc1sc(CC)cc1C1C(C(=O)Nc2cccnc2)=C(C)NC2=C1C(=O)CCC2 (centres undefined) → 0.45, -0.16

Following part
SMILES | AID504770 | CapD inh
O=C1c2ccccc2C(=O)C1(CCO)c1ccccc1 | 0.2 | -0.085
CC(C)(C)N1C(=O)NC(=O)/C(=C\c2ccc(N3CCCC3)cc2)C1=O | 2.5 | -0.62
O=C(O)C1CCCN1C(=O)Cc1ccccc1 (centres undefined) | 1.4 | 0.04
Cc1cc(S(=O)(=O)N2CCN(CCOCCO)CC2)c(C)cc1Cl | . | 0.56
O=C(CCCOc1ccc(Cl)cc1Cl)Nc1ccc2c(c1)OCCO2 | -0.8 | 0.14
CC1CN(C(=O)/C=C/c2cn(-c3ccccc3)nc2-c2ccc(Cl)cc2)CC(C)O1 (centres undefined) | 1.1 | 0.33
CCOc1ccc2nc(N3CCCC(C(=O)NCCC(C)C)C3)sc2c1 (centres undefined) | 0.2 | -0.29
CCS(=O)(=O)NCCc1csc(-c2ccc(OC)c(OC)c2)n1 | 0.75 | .
O=C(OCc1ccccc1-c1ccccc1)N1CCN(CCCC(c2ccc(F)cc2)c2ccc(F)cc2)CC1 | . | 0.22
O=S1(=O)CCC(S(=O)(=O)NCc2ccccc2)C1 (centres undefined) | 0.15 | -0.37
Cc1ccc2nc(Cl)sc2c1 | -1.3 | .
Cc1nn2c(C(F)(F)F)cc(-c3ccc(Cl)cc3)nc2c1C(=O)Nc1c(C)n(C)n(-c2ccccc2)c1=O | . | -0.8
c1ccc2c(-c3cn[nH]c3)ccnc2c1 | . | 4.6
CSc1nc2ccccc2s1 | -1.4 | 0.045
O=S(=O)(c1cccc(S(=O)(=O)N2CCOCC2)c1)N1CCCCCC1 | 0.05 | .
CN(C(=O)c1cc(-c2ccccc2)on1)C1CCCCC1 | 0.1 | .
COC(=O)CCC(=O)Nc1ccc(C)cc1 | . | -0.14
N#CCCN(/N=C/c1ccccc1)C1=NS(=O)(=O)c2ccccc21 | 0.9 | -0.25
O=C(c1ccccc1F)N1CCC(n2nc(-c3ccccc3)oc2=O)CC1 | -0.65 | -1.3
COc1ccc(-n2c(SCC(=O)Nc3nccs3)nc3c(sc(=S)n3-c3ccccc3)c2=O)c(OC)c1 | . | -0.38

Laid out differently: results already given.
Values run as follows: AID504770 | CapD inh
- CCOc1ccc2nc(N3CCCC(C(=O)NCCC(C)C)C3)sc2c1 (centres undefined)
    0.2 | -0.29
- O=C1c2ccccc2C(=O)C1(CCO)c1ccccc1
    0.2 | -0.085
- CCS(=O)(=O)NCCc1csc(-c2ccc(OC)c(OC)c2)n1
    0.75 | .
- c1ccc2c(-c3cn[nH]c3)ccnc2c1
    . | 4.6
- CC1CN(C(=O)/C=C/c2cn(-c3ccccc3)nc2-c2ccc(Cl)cc2)CC(C)O1 (centres undefined)
    1.1 | 0.33
- O=C(c1ccccc1F)N1CCC(n2nc(-c3ccccc3)oc2=O)CC1
    -0.65 | -1.3
- CSc1nc2ccccc2s1
    -1.4 | 0.045

(list continues)
SMILES | AID504770 | CapD inh
CCOC(=O)C1(C)CC(=O)C(=O)N1c1cccc(Cl)c1 (centres undefined) | . | 0.53
CCOC(=O)c1ccc(N2CCOCC2)c(N=Cc2cc(Cl)cc(Cl)c2O)c1 | . | -0.15
Cc1ccc(NC(=O)C(C)N(C)Cc2ccccc2)cc1 (centres undefined) | 1.4 | .
COc1cccc(S(=O)(=O)N2CCOCC2)c1 | 1.2 | -0.76
Cc1cc(-c2ccc(S(=O)(=O)NCc3ccccn3)s2)on1 | 0.05 | 0.41
COc1ccc(CN2CCc3ccccc3C2)cc1 | -0.2 | 0.04
Cc1c(C(=O)NCc2ccco2)oc2ccccc12 | . | 0.17
CCNS(=O)(=O)c1ccc(F)cc1 | 1.3 | 0.15
COc1ccc(C(=O)[C@@H]2[C@@H](c3ccsc3)C(C#N)(C#N)[C@H]3C=Cc4ccccc4N23)cc1 | . | 5.8
CCn1c(SCc2ccc(Cl)cc2)nnc1C(C)C | -0.15 | .
CCN(CC)C(=O)Sc1nc2ccccc2c(=O)n1CC1CC1 | -0.55 | 0.09
CCc1ccccc1NS(=O)(=O)c1ccc2[nH]cc(C(=O)NCc3cccnc3)c(=O)c2c1 | -1 | -0.41
CCc1ccc(C(=O)CSc2ncn[nH]2)cc1 | -1.6 | 0.15
CC1CCC(C(C)C)C(OCC(O)CN2CCCCC2)C1 (centres undefined) | -0.35 | 0.67
O=C(NC(=O)N1CCCC1)c1csnn1 | . | 0.06
Cc1ccc(/C=C/C(=O)OCC(=O)Nc2ccc3c(c2)CCC3)o1 | 0 | .
CCc1cc(C)cc(OCCOc2ccc(-c3nc4sc5c(c4c(=O)[nH]3)CCCC5)cc2OC)c1 | . | 0.27
COc1ccc(CN(C)CC(=O)Nc2ccccc2C(=O)NC2CC2)cc1F | -0.55 | .
CC(C)c1ccc(Nc2nc3cccnc3s2)cc1 | 0.15 | 0.61
Cn1c2ccccc2c2nn3c(=S)[nH]nc3nc21 | -0.9 | 0.2

Among those listed so far, 3 contain bromine.
SMILES | AID504770 | CapD inh
Cn1c(=O)c2c(nc(NCCOCCO)n2Cc2ccc(Br)cc2)n(C)c1=O | . | -0.1
Cc1nc(N=CNO)ccc1Br | -1 | -0.07
COc1ccc(Br)cc1CNC(=O)CCc1nc(-c2ccccc2F)no1 | 0.1 | 0.68

The listing continues:
SMILES | AID504770 | CapD inh
O=C(COC(=O)c1ccccc1N1C(=O)C2C3C=CC(C3)C2C1=O)c1ccc(Cl)c([N+](=O)[O-])c1 (centres undefined) | . | -0.25
N#CCn1c(CSc2ncnc3sccc23)nc2ccccc2c1=O | -1 | .
O=C(NCc1ccncc1)c1cc(-c2ccc(F)cc2)nc2ccccc12 | 0.55 | 17
O=C(NCCCc1ccccc1)c1cnc2ccccn2c1=O | -0.75 | -0.29
Cc1noc(/C=C/c2ccccc2F)c1S(=O)(=O)N1CCC(C(=O)NC2CCCCCC2)CC1 | -0.7 | 0.37
O=C(c1cc(S(=O)(=O)N2CCOCC2)ccc1Sc1ccc(Br)cc1)N1CCC2(CC1)OCCO2 | . | -0.46
CCOc1ccc2nc(SCC(=O)c3cccs3)sc2c1 | 0.7 | -0.18
CC(C)=NNc1nc(-c2ccccc2)cs1 | -0.45 | 0
COc1ccccc1CN1C(=O)C2ON(c3ccccc3)C(c3cccc([N+](=O)[O-])c3)C2C1=O (centres undefined) | . | -0.26
COc1ccc(C(=O)Nc2cc(C(=O)Nc3ccccc3SC)ccc2N2CC3CC(C2)c2cccc(=O)n2C3)cc1 (centres undefined) | . | 0.2
Nc1cc(=O)[nH]c2ncnn12 | -1.9 | 18
Cc1ccc(N2CCN(C(=O)CC(C)(C)CC(=O)O)CC2C)cc1 (centres undefined) | . | 0.1
Cc1ccc(-n2c(=O)[nH]cc(C(=O)Nc3ccc(S(N)(=O)=O)cc3)c2=O)cc1C | 0.4 | -0.04
COC(=O)C1=CO[C@@H](C)[C@H]2CN3CCc4c([nH]c5ccccc45)[C@@H]3C[C@H]12 | . | -0.035
O=[N+]([O-])/C(C(Cl)=C(Cl)Cl)=C(\Nc1ccccc1)Sc1ccccc1 | . | -0.99
Nc1nc(-c2ccc3c(c2)NC(=O)CO3)cs1 | -0.4 | .
C=CC(C)(O)CC1C(C)(O)CCC2C(C)(C)CCCC21C (centres undefined) | -0.2 | -0.045
CCCSc1nc2c(c(=O)[nH]c(=O)n2C)n1C(C)C | 1.8 | -0.15
CC(C(=O)Nc1ccccc1C(=O)NC1CC1)N1C(=O)C2CC=CCC2C1=O (centres undefined) | -0.75 | .
Nc1nc(N)n(-c2ccccc2)c(=Nc2ccccc2)n1 | -1.2 | -0.33
COCCNC(=O)c1cc(-c2ccccc2)on1 | 1.3 | .
Cc1ccc(N2C(=O)CSC23C(=O)N(CN2CCc4ccccc4C2)c2ccccc23)cc1Br (centres undefined) | . | -0.58
O=C(Nc1ccc(F)cc1)C(F)(F)Sc1ccccc1 | -0.1 | -0.39
C=C(C)CSc1n[nH]c2nc3c(c(=O)n12)C(C)(CC)Cc1ccccc1-3 (centres undefined) | 0 | 1.8
CC1CCCC(C)N1C(=O)C1CC(c2ccccc2F)=NO1 (centres undefined) | -0.2 | -0.24
COC(=O)C(CC(C)C)NC(=O)C1c2ccccc2Oc2ccccc21 (centres undefined) | 0.2 | 0.36
CC(=O)Oc1ccc2ccccc2c1/C=N/c1oc(-c2ccccc2)c(-c2ccccc2)c1C#N | . | 1.3
CCOC(=O)C1=CN(Cc2ccc(F)cc2)C=C(C(=O)OCC)C1c1cc(OC)c(O)c(OC)c1 | . | 1.3
O=C(/C=C/c1ccccc1)NC(=S)Nc1ccc(C(F)(F)F)cc1 | 0.5 | 0.32
Cc1ccc2cccc(S(=O)(=O)Nc3ccc4c(c3)OCO4)c2n1 | 0.1 | 0.83
CC(C)Nc1nc2c(S(=O)(=O)c3ccccc3)nnn2c2ccsc12 | 0.5 | 6.6
CN1C(=O)C(=Cc2ccc(N3CCc4ccccc4C3)c([N+](=O)[O-])c2)C(=O)N(C)C1=O | . | -1
Cc1coc2cc3oc(=O)c(CC(=O)O)c(C)c3cc12 | 2.5 | 5.6
Cc1ccc(C(=O)Nc2ncc(Cl)cn2)cc1 | 0.7 | 0.27
CN(C)C(=O)COc1ccc(Oc2ccccc2)cc1 | -0.35 | -0.15
COc1ccc(C(=O)N2CCCC(C(=O)N3CCCCCC3)C2)cc1 (centres undefined) | -0.75 | -0.74
O=C(N/N=C1/C(=O)c2cccc3cccc1c23)c1ccc(O)cc1 | -0.1 | .
COc1ccccc1C(=O)NCCCN1CCN(C)CC1 | . | -0.39
CCCCCCc1cc(O)c2c(c1)OC(C)(C)C1=C2CCN(C)C1 | -0.45 | .
Cc1ccc(C2Nn3c(nnc3-c3ccccc3)SC2C(=O)NCC2CCCO2)cc1 (centres undefined) | -0.35 | 6.8
COc1ccc(-c2n[nH]c(=S)o2)cc1OC | 1.1 | -0.54
N#C/C(=C\c1ccc(-c2ccc(F)cc2)o1)C(=O)NCCc1ccccc1 | 0.55 | .
O=C(Nc1ccccc1Br)c1ccc2c(c1)N(Cc1ccc(F)cc1)C(=O)CS2=O (centres undefined) | 0.05 | 46
Cc1ccc(C)c(SCC(=O)OCC(=O)N2CC(C)OC(C)C2)c1 (centres undefined) | 0.75 | .
O=[N+]([O-])c1ccc2c(c1)NC(c1ccc([N+](=O)[O-])s1)O2 (centres undefined) | . | -3.5
CC(C)(C)c1ccc(COCCn2cc(-c3ccc(Cl)cc3)cn2)cc1 | . | -0.27
COc1ccccc1OCCOc1c(Cl)cc(C=C2C(=O)NC(=O)NC2=O)cc1OC | . | -0.49
Cc1ccc(C)c(CN2CCN(Cc3ccccc3)CC2)c1 | 0.2 | 0.08
Cc1nn(Cc2nnc(SCc3cccc(C(F)(F)F)c3)o2)c(C)c1Br | -0.3 | 0.35
Cc1ccc(S(=O)(=O)Nc2cc3c4c(oc3c3ccccc23)CC(C)CC4)cc1 (centres undefined) | . | -0.42
COc1ccc(/C(=C/Nc2ccc(C(F)(F)F)cc2)C(C)=O)cc1OC | . | -0.55
CC(C)(C)NS(=O)(=O)c1ccc(Cl)c(Cl)c1 | -0.3 | 0.055
O=C(CCc1nc2ccccc2s1)OCc1nc2ccccc2s1 | 1.1 | .
COc1ccccc1NC(=O)C1=C(C)NC2=C(C(=O)CC(c3ccc(OC)c(OC)c3)C2)C1c1ccc(C)o1 (centres undefined) | 0.05 | 20
